# Screening results deposited in PubChem by National Center for Advancing Translational Sciences (NCATS).
# SARS PLP yeast: SARS-CoV PLP inhibition in yeast; Potency, µM (highest dose often 32.9 µM), without a hit: top-dose activity, positive = growth rescue; S. cerevisiae expressing SARS-CoV PLpro, growth rescue; control for the full effect not named in the record; 330,000 tested, 0.19% active; further: 0% is about no effect; nearly all actives have a fitted effect of over 55% in size; growth read by luminescence after 48 h
# Lassa entry inh: blocks Lassa virus binding to or entry into cells; Lassa virus pseudotype entry inhibition, cell reporter; control for the full effect not named in the record; Potency, µM (doses to about 37.9 µM), for inactives: top-dose activity change, negative = inhibition, usual class: inhibitors; 300,000 tested, 1.2% active; AID 540256; active means well fitted inhibition curve with a large enough effect; inconclusive means small, poorly fitted or top-dose-only effect, or effect the other way; inactive means flat fitted curve, though single readings scatter; tested in HEK293 cells; further: on the % scale 0 is the no-effect control and ±100 the full control effect; nearly all actives have a fitted effect of over 50% in size; luciferase read-out
# StopGo reporter: FMDV 2A StopGo reporter, luciferase signal. human cells with a luciferase reporter of 2A StopGo recoding; control for the full effect not named in the record. Potency, µM (top dose mostly 57.9 µM), inactives show at the highest dose signal change, negative = less light. 410,000 tested, 1.2% active; active = well fitted falling curve with a large enough effect; inconclusive = small, poorly fitted or top-dose-only effect; inactive = no such curve, though single readings can be large or run the other way; tested in HEK293T cells; further: on the % scale 0 is the no-effect control and ±100 the full control effect; nearly all actives have a fitted effect of over 45% in size; luciferase light after 4 h
# Cruzain noTriton: cruzain (T. cruzi) inhibition without detergent. purified cruzain, Z-FR-AMC fluorescence, no detergent. Potency, µM, inactives show max response, negative = inhibition, usual class: inhibitors. 200,000 tested, 2.3% active. AID 1476. P25779; active means well fitted curve in the direction sought with a large enough effect; inconclusive means small, poorly fitted or top-dose-only effect, or another doubt; inactive means no such curve, though single readings can be large; an effect the other way counts as inactive or inconclusive;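 further: plate controls were enzyme without inhibitor for no effect and buffer without enzyme for full effect; nearly all actives have a fitted effect of over 40% in size; top concentration of the series not given in the record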
# Target sequence (P25779 123-467 limits assumed): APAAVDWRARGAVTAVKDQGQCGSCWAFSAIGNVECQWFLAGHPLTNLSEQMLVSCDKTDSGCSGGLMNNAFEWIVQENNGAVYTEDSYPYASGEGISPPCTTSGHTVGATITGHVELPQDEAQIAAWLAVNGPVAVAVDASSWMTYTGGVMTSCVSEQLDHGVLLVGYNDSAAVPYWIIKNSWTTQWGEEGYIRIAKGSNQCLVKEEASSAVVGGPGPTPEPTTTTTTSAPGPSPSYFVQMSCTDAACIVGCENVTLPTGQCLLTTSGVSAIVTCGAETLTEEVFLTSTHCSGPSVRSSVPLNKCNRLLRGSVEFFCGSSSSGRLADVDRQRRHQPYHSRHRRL
#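 Detergent-free condition (0.00005% Triton X-100) in acetate buffer pH 5.5 with DTT. 1.5 nM enzyme and compound were pre-mixed 15 min, then 2 uM Z-FR-AMC substrate added; reaction progress from fluorescence change between first and third reads (60 s).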
# NS1 inh: blocks influenza NS1 protein function; S. cerevisiae slowed by influenza A NS1, growth recovery by OD600; Potency, µM (top dose mostly 46.1 µM), for inactives: top-dose activity, positive = more growth; 270,000 tested, 0.4% active; AID 2326; further: actives are rising curves; nearly all actives have a fitted effect of over 50% in size
#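 Read-out: OD600 growth recovery of NS1-expressing budding yeast. Cells grown overnight at 30C in -URA glucose medium, washed, resuspended and diluted 1:100 in 2% galactose assay medium, pH 6.0. Same strain lacking NS1 served as positive control.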
# RE007 growth inh: less growth of the S. pombe RE007 Vpr strain; AID 651644; 360,000 tested, 0.21% active; Potency, µM (series often up to 92.2 µM), inactives show at the top dose activity change, negative = less growth; S. pombe RE007 Vpr strain, BacTiter-Glo ATP luminescence, 24 h; control for the full effect not named in the record; active = well fitted falling curve with a large enough effect; inconclusive = small, poorly fitted or top-dose-only effect; inactive = no such curve, though single readings can be large or run the other way;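 further: on the % scale 0 is the no-effect control and ±100 the full control effect; nearly all actives have a fitted effect of over 50% in size; the assay follows cell death caused by Vpr and the record does not say whether a fall means rescue or toxicity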
#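 Fission yeast RE007 carrying one integrated HIV-1 vpr copy, seeded at OD 0.01 in PMG+AL medium with 23 nL pinned compound. Grown 24 h at 30 degrees; viability read by BacTiter-Glo luminescence after 5 min.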
# Cruzain Triton: cruzain (T. cruzi) inhibition with detergent. P25779. purified cruzain, Z-FR-AMC fluorescence, 0.01% Triton. Potency, µM, for inactives: max response, negative = inhibition, most hits filed as inhibitors. 200,000 tested, 0.43% active; active means well fitted curve in the direction sought with a large enough effect; inconclusive means small, poorly fitted or top-dose-only effect, or another doubt; inactive means no such curve, though single readings can be large; an effect the other way counts as inactive or inconclusive;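 further: plate controls were neutral wells for no effect and buffer without enzyme for full effect; nearly all actives have a fitted effect of over 40% in size; top concentration of the series not given in the record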
#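 Enzyme 1.5 nM, Z-FR-AMC 2 uM, NaOAc 100 mM pH 5.5, DTT 5 mM, Triton X-100 0.01%; 15 min RT compound preincubation; kinetic ex360/em450, 60 s delta.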
# MARV entry inh: Marburg virus entry inhibition; Marburg virus pseudotyped entry inhibition, cell reporter; control for the full effect not named in the record; about a third of the inactives were read at about 46 µM; Potency, µM (top dose mostly 37.8 µM), inactives show at the top dose activity change, negative = inhibition, actives largely listed as inhibitors; 300,000 tested, 1.8% active; active = well fitted inhibition curve with a large enough effect; inconclusive = small, poorly fitted or top-dose-only effect, or effect the other way; inactive = flat fitted curve, though single readings scatter; tested in HEK293 cells; about a fifth of its hits are not listed in these tables; further: on the % scale 0 is the no-effect control and ±100 the full control effect; luciferase read-out
# Numbers without * were called inactive; ? = inconclusive; / = not tested or not shown; & = joins results of further samples; [ ] = remark or other dose. Unless noted, the call rests on the fitted dose curve; in most records, active means well fitted rising curve with a large enough effect; inconclusive means small, poorly fitted or top-dose-only effect; inactive means no such curve, though single readings can be large or run the other way. Potency means the concentration at half of the fitted maximal effect.
SMILES,SARS PLP yeast,Lassa entry inh,StopGo reporter,Cruzain noTriton,NS1 inh,RE007 growth inh,Cruzain Triton,MARV entry inh
COc1cccc(CN2CC(C(=O)NCCc3ccc(C)o3)CCC2=O)c1 (stereo not given),-2%,19%,-18%,/,9%,14%,/,-1%
CCc1ccc(Cn2c(CNS(=O)(=O)c3ccc(F)c(Cl)c3)nc3cccnc32)cc1,/,-4%[46.1 µM],69%[activator],-13%,/,/,-1.7%,/
CCOc1ccc(NC(=O)c2cc(OC)nc3ccccc23)cc1,0%,?,-5%,/,-2%,-5%,/,-23%[46.1 µM]
O=C(/C=C/c1ccco1)NCCc1ccccc1,0%,13%,33%[activator],/,/,0%,/,30%[46.1 µM]
COc1cccc(OC)c1OCC(O)CN1CCN(c2ccccc2)CC1 (stereo not given),-6%,-6%,-3%,-1%,-7%,11%,5.7%,-21%[46.1 µM]
O=C(c1cc2cc(Br)ccc2[nH]1)N1CCc2ccccc21,1%,9%[46.1 µM],19%,/,-2%,7%,/,?
COc1cccc(N2CCN(c3ccc4nnc(CCC(=O)Nc5ccccc5OC)n4n3)CC2)c1,8%,/,?,/,28%,-13%,/,/
c1ccc(-c2noc(-c3ccc4c(c3)OCO4)n2)cc1,0%,?,14µM*,/,2%,5%,/,?
COc1ccccc1-c1nc(C(N)=O)c2[nH]c(=O)n(-c3cccc(C)c3)c2n1,-7%,6%,-14%,?,6%,-10%,0.6%,-15%
O=C(NC1CCCC1)C1CCCN(C(=O)Nc2ccccc2)C1 (stereo not given),-1%,-5%[46.1 µM],1%,/,2%,-1%,/,11%[46.1 µM]
COc1cc(CSc2ncn[nH]2)c(OC)cc1CSc1ncn[nH]1,5%,2%,50%[activator],4%,2%,1%,1.0%,21%
CC(C)C[C@H](NC(=O)c1nc[nH]c1C(=O)NCC(=O)OCc1ccccc1)C(=O)OCc1ccccc1,3%,/,-29%,/,?,-6%,/,/
CCC(C)NS(=O)(=O)c1ccc(OCC(=O)N2CCC(C)CC2)cc1 (stereo not given),11%,0%,/,13%,-8%,-3%,2.7%,0%
COc1ccc(C2CC(c3ccc(Cl)cc3)=NN2C(C)=O)cc1 (stereo not given),-8%,-18%,19%,/,-9%,-5%,/,-24%
CSCCC(N=C(NS(=O)(=O)c1ccc(C)cc1)c1ccccc1)C(=O)O (stereo not given),-1%,/,-15%,/,-2%,-13%,/,/
O=C(COC(=O)CNC(=O)c1ccc(Br)o1)Nc1ccccc1OC(F)F,0%,-5%,-3%,/,/,1%,/,2%
CC(=O)c1ccc(N2CCN(c3ncnc4c3c(-c3ccccc3)cn4-c3cccc(C)c3)CC2)cc1,/,-4%[46.1 µM],-13%,?,/,/,5.1%,/
C=C(C)Cn1c(SCC(=O)Nc2cc(C)ccc2C)nc2sc3c(c2c1=O)CCCC3,/,26%[46.1 µM],-24%,-3%,/,/,-2.2%,6%[46.1 µM]
CCCCn1c(SCC(=O)c2ccccc2)nc2sc3c(c2c1=O)CCCC3,/,?,-19%,-11%,/,/,0.2%,/
Cc1oc2c(c1C(=O)O)C(=O)c1ccccc1C2=O,0%,/,-24%,/,3%,-11%,/,/
Cc1occc1-c1nnc(SCC(=O)c2ccc(Cl)cc2)n1C,-8%,3%,-7%,3%,-10%,-5%,0.4%,3%
O=C(COC(=O)C(Cc1c[nH]c2ccccc12)NC(=O)c1ccc(Cl)cc1)c1ccc(Cl)cc1 (stereo not given),/,-2%[46.1 µM],12%,?,/,/,-2.3%,/
CC1CCC(NC(=O)c2ccc(CS(=O)(=O)c3c(Cl)cccc3Cl)o2)CC1 (stereo not given),/,?,-19%,2%,/,/,0.2%,0%[46.1 µM]
N#Cc1nc(COc2cccc(Cl)c2)oc1NCc1ccncc1,0%,-5%,2%,7%,-20%,-13%,-0.4%,21%[46.1 µM]
Cc1c(C=O)c2cc(OCc3ccccc3)ccc2n1C,-1%,15%[46.1 µM],32%[activator],/,-32%,-9%,/,?
OCCCNc1ncnc2sc3c(c12)CCN(Cc1ccccc1)C3,-1%,/,-22%,/,-1%,1%,/,/
O=C(Nc1ccc(Cl)cc1)c1cc2c(-c3ccccc3)nn(-c3ccccc3)c2s1,/,-4%[46.1 µM],-13%,15%,/,/,-0.3%,-1%[46.1 µM]
O=C(COc1ccccc1)N/N=C/c1cc2c(cc1[N+](=O)[O-])OCO2,-19%,-14%,/,0%,2%,-7%,-4.6%,-10%
Cc1ccc(CNC(=O)COC(=O)C2CCC2)cc1,3%,?,32µM*,/,/,-3%,/,-2%
Cc1ccc(NC2CCCN(C(=O)c3cnc4ccccn4c3=O)C2)cc1C (stereo not given),4%,/,-3%,/,-3%,-4%,/,/
COc1ccc(CN2CCN(Cc3cccc(Oc4ccccc4)c3)CC2)c(OC)c1OC,-3%,?,?,/,3%,-2%,/,?
O=C(Cn1ncc2ccsc2c1=O)N1CCN(c2ccc(F)cc2)CC1,/,-1%[46.1 µM],0%,-11%,/,/,-1.9%,-22%[46.1 µM]
CCOc1ccc(NC(C)C(=O)N/N=C/c2cccs2)cc1 (stereo not given),-5%,3%,-2%,-11%,-4%,-12%,-3.8%,6%
COc1ccc(OC)c(NC(=O)CCN2CCCC(C)C2)c1 (stereo not given),0%,4%,/,-7%,1%,-7%,5.6%,-2%
O=C(CSc1nnnn1-c1ccccc1)Nc1nsc(-c2ccc(Cl)cc2)n1,-3%,5%,0%,?,?,8%,5.6%,?
CCc1ccc(CNC(=O)c2cc3c(s2)-c2ccccc2OC3)cc1,/,/,9%,-26%,/,/,-29%,4%[46.1 µM]
Cc1nc2ccn(Cc3ccccc3)c(=O)c2cc1C(=O)Nc1ccc(F)cc1Cl,/,7%[46.1 µM],-17%,3%,/,/,-4.0%,/
O=C(NCc1ccccc1)c1ccc2c(c1)N(Cc1ccccc1)C(=O)c1ccccc1S2(=O)=O,/,-12%[46.1 µM],3%,?,/,/,-1.3%,-1%[46.1 µM]
Cc1ccc(NC(=S)NC(=O)c2ccc(F)cc2)cc1S(=O)(=O)Nc1ccccc1Cl,28%,?,6%,?,16%,10%,-5.2%,1.1µM*
Cc1ccc(CN2C(=O)C(O)(CC(=O)c3ccc(C)cc3)c3ccccc32)cc1 (stereo not given),/,?,-14%,?,/,/,-7.0%,0%[46.1 µM]
CCC(C)OC(=O)/C(C#N)=C/c1ccc(-c2ccc(Br)cc2)o1 (stereo not given),/,2%[46.1 µM],21%,-3%,/,/,-1.4%,/
N=c1oc2ccccc2cc1-c1nc(-c2ccc(Cl)cc2)cs1,7%,-4%,12%,?,10%,-3%,-3.5%,8%
COc1ccccc1-c1c(C)nn2c(N3CCN(c4ccccc4)CC3)cc(C)nc12,/,-18%[46.1 µM],?,-7%,/,/,1.0%,/
CCn1cc(C(=O)OCC(=O)c2ccc(Cl)cc2)c(=O)c2ccc(C)nc21,-1%,6%,-14%,/,/,7%,/,20%[46.1 µM]
Cc1ccc(CCNC(=O)CCSCc2ccccc2Cl)cc1,/,23%[46.1 µM],-4%,-6%,/,/,0.3%,/
CCOc1ccc(CN2CCNC(=O)C2CC(=O)N(C)Cc2nonc2C)cc1 (stereo not given),5%,4%,15%,/,10%,-6%,/,17%
CCCCS(=O)(=O)N1CN(S(=O)(=O)CCCC)C2NC(=O)NC21 (stereo not given),27%,10%,33%[activator],-2%,?,18%,2.3%,15%
Cc1ccc(CN(C(=O)c2ccccc2)c2ccccn2)o1,/,?,12%,2%,/,/,-0.3%,2%[46.1 µM]
CCOc1cc(C(=O)Nc2ccc(-c3nc4ncccc4o3)cc2C)cc(OCC)c1OCC,/,-3%[46.1 µM],-18%,-1%,/,/,0.6%,-3%[46.1 µM]
CCOC(=O)C1CCN(C(=O)c2cc(S(=O)(=O)N3CCOCC3)c(Cl)cc2Cl)CC1,1%,-13%,-17%,?,-12%,-19%,0.3%,23%&23%
Cc1c(NC(=O)CSc2ccc(Cl)cc2)cccc1-c1nc2cc(Cl)ccc2o1,8%,3%,17%,25µM*,-3%,-26%,-1.2%,?
Cc1cc(C)c(NC(=O)c2ncoc2-c2ccco2)c(C)c1,/,-5%[46.1 µM],?,-4%,/,/,-4.7%,/
COc1ccccc1NS(=O)(=O)c1cc(NC(=S)Nc2cc(C)cc(C)c2)ccc1Cl,3%,-21%,?,2%,?,8%,-4.9%,?
CC1Cc2ccccc2N1C(=O)CSc1nnnn1C(C)C (stereo not given),-1%,-1%,-12%,3%,-4%,-2%,2.8%,22%[46.1 µM]
CN(CC(=O)Nc1ccc(F)cc1)C(=O)COc1ncnc2ccccc12,0%,/,-1%,/,2%,0%,/,/
CC1CN(C(=O)CCC(=O)NC2CCCCC2)c2ccccc2S1 (stereo not given),-9%,/,-4%,/,-27%,8%,/,/
CCn1c(CCNC(=O)c2cccs2)n[nH]c1=S,17%,11%,-13%,1%,26%,-9%,2.1%,?
Cc1cc(C)cc(NC(=O)CSc2nc(=O)n3cc(C)ccc3n2)c1,-2%,-5%,-13%,/,/,0%,/,-5%[46.1 µM]
CCOC(=O)c1cnc(-n2nc(C)cc2C)nc1NC1CCCC1,-4%,?,?,/,-76%,-3%,/,11µM*
CC(C)c1cnc2c(c1SCc1cccc(F)c1)c(=O)n(C)c(=O)n2C,/,-9%[46.1 µM],-24%,-14%,/,/,-2.3%,/
# The listing continues.
SMILES,SARS PLP yeast,Lassa entry inh,StopGo reporter,Cruzain noTriton,NS1 inh,RE007 growth inh,Cruzain Triton,MARV entry inh
CC1(c2ccc3c(c2)OCO3)NC(=O)N(CC(=O)c2ccc[nH]2)C1=O (stereo not given),-2%,1%,-8%,/,/,7%,/,1%
Cc1cc(C)nc(NC(=NCCc2c[nH]c3ccc(Cl)cc23)NC(=O)c2ccccc2C)n1,/,3%[46.1 µM],-3%,0%,/,/,-1.8%,3%[46.1 µM]
COc1ccc(Nc2ncc3c(n2)CCN(Cc2ccccc2C)C3)c(OC)c1,/,-8%[46.1 µM],?,4%,/,/,-1.0%,/
O=C(CN1C(=O)C2(SCC(=O)N2c2cccc(Cl)c2)c2ccccc21)NCc1ccccc1 (stereo not given),/,-11%[46.1 µM],-13%,-7%,/,/,-3.5%,/
